Assay outcomes deposited in PubChem BioAssay by ICCB-Longwood Screening Facility, Harvard Medical School.
Choline anaer gr – growth inhibitors of anaerobic choline-fed gram-negatives, minimal medium, absorbance | Gram-negative bacterium anaerobic choline minimal medium; hits give low values; many inactives read as strong as hits in the columns shown | calls only | 0.2% of 55,000 active | AID 1963822, 2024;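 active means growth z-score on choline under -2 at 7 or 20 h with little or no fall on glycerol, limits in tiers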;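 further: stock transfer was 300 nL into about 50 µL; the organism is E. coli; final concentration not given here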
Choline anaer gr early – recorded beside Choline anaer gr, whose call it bears; z-score; measured here: choline growth z-score, timepoint 1;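 score of optical density at 7 h as mean of two plates; lower means less growth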
The depositor's hits bear a star; i = inactive; & = joins results of further samples. An excerpt (hit frequency here may not be typical).

Compound	Choline anaer gr	Choline anaer gr early
O=C1CC(c2ccccc2Cl)c2c(-c3ccccc3)nn(-c3ccccc3)c2N1 (stereo unspecified)	i	-0.13
COc1nc(N)nc2c1ncn2[C@@H]1O[C@H](CO)[C@@H](O)[C@@H]1O	i	0.88
CC1CCc2noc(NC(=O)COc3ccccc3)c2C1 (stereo unspecified)	i	0.26
CCOc1ccccc1NC(=O)NCCC1CCN(C(=O)Nc2cccc(Cl)c2)CC1	i	2
COc1cc(NC(=O)CC2Sc3ccc(S(=O)(=O)N(C)C)cc3N(C)C2=O)cc(OC)c1 (stereo unspecified)	i	0.15
COc1cc(CC(=O)O)ccc1O	i	-0.74
CCN(CC)S(=O)(=O)c1ccc2nc(N3CCN(Cc4ccc5c(c4)OCO5)CC3)cnc2c1	i	-3
Cc1ccc(-c2n[nH]c(CCNS(=O)(=O)c3cccc(F)c3)n2)cc1	i	0.06
Cn1nnnc1SCCNCc1ccc2c(c1)n(C)c(=O)n2C	i	0.03
Cc1ccc(NC(=O)CCc2nc(CSc3nnc(-c4ccccc4)o3)no2)cc1Cl	i	0.6
CC(=O)NCCc1nc2cc(NC(=O)COc3ccc(C)cc3)ccc2n1C	i	0.64
O=S(=O)(c1cccn2c(SCc3ccccc3Cl)nnc12)N1CCCC1	i	-0.1
COc1ccc(-c2nonc2NC(=O)C(C)Oc2ccc(C)c(C)c2)cc1C (stereo unspecified)	i	1.9
CCN(CC)C(=O)C1CCCc2c1[nH]c1ccc(Cl)cc21 (stereo unspecified)	i	0.39
Cc1ccc(NC(=O)Nc2cc(F)c3nc(N4CCCC4)ccc3c2)cc1	i	1.2
O=C(CN1C(=O)C2CCCCN2c2ccc(S(=O)(=O)N3CCCC3)cc21)N1CCCCC1 (stereo unspecified)	i	-1.1
CC1CCN(CCC2CCCN2S(=O)(=O)c2cccc(O)c2)CC1 (stereo unspecified)	i	0.52
COc1ccccc1C(=O)N1CCc2c(c(C(=O)NCc3ccccc3)nn2C)C1	i	0.11
COC(=O)c1cnn(-c2ccc(C)cc2)c1N	i	-1.2
O=C(CN1C(=O)CSc2sc(S(=O)(=O)N3CCCC3)cc21)NCc1ccccc1Cl	i	0.38
COc1ccc(OC)c(NC(=O)N2CCc3c([nH]c4ccc(OC)cc34)C2c2ccc(F)cc2)c1 (stereo unspecified)	i	-0.99
Fc1ccc(-c2noc(-c3ccc(N4CCCC4)nc3)n2)cc1	i	0.02
CCn1nc(C)c2ccnc(N3CCC(C(=O)N4CCN(c5ccccn5)CC4)CC3)c21	i	0.78
Cc1cc(-c2cc(S(=O)(=O)NCc3cccs3)c(C)s2)on1	i	-1.6
O=C(CCC(=O)N1CCSc2ncccc21)NCc1ccc2c(c1)OCO2	i	0.81
CC1(C)CS(=O)(=O)N(c2ccc(C(=O)N3CCc4ccccc43)cc2)C1=O	i	-0.61
Cc1nc2ccc(C(=O)NC3CCCCC3)cc2nc1C	i	-0.43
CCCCC[C@H](O)/C=C/[C@@H]1[C@@H](C/C=C\CCCC(=O)O)[C@@H](O)C[C@H]1O (tested in a mixture with another compound)	i	0.15
CCn1c(=O)c2c(C(=O)NCCC3=CCCCC3)cc(=O)n(CC)c2n(C)c1=O	i	1.1
O=C(CSc1nnc(-c2cccnc2)o1)NCCC1=CCCCC1	i	-0.01
O=C1COc2cc(S(=O)(=O)N3CCN(C4CCCCC4)CC3)c(Cl)cc2N1	i	-0.12
CCOc1ccc(C(Nc2nc(C)cc(C)n2)c2c(NC(=O)c3ccccc3)sc(C)c2C)cc1 (stereo unspecified)	i	1.4
Cc1nn(CCCC(=O)NCCCN2CCOCC2)c(=O)c2c(-n3cccc3)n(-c3ccccc3)nc12	i	-0.71
CCc1ccc(Nc2nc(C)c3ncn(-c4ccc(CC)cc4)c3n2)cc1	i	0.19
Cc1cc(C)cc(-n2ccnc(NC(=O)Nc3ccc(F)cc3)c2=O)c1	i	-0.36
COc1ccccc1CNC(=O)C1CCCN1S(=O)(=O)c1ccc2c(c1)C(C)(C)C(=O)N2C (stereo unspecified)	i	-2.2
CC(Oc1ccc(C(C)(C)C)cc1)C(=O)NCCc1csc(-c2ccccc2)n1 (stereo unspecified)	i	1.9
O=C(NCc1cccnc1)c1ccc(OCc2nnc(C(=O)Nc3ccc(Cl)cc3)s2)cc1	i	-0.82
CCOC(=O)c1c(C)[nH]c(C)c1S(=O)(=O)N1CCC(C(=O)Nc2ccc(NC(C)=O)cc2)CC1	i	-1.8
Cc1nn2c3c(nnc2c1-c1ccccc1)C(=O)CCC3	i	0.72

Filtered by structure, the entries above containing fluorine (5)
Compound	Choline anaer gr	Choline anaer gr early
Cc1ccc(-c2n[nH]c(CCNS(=O)(=O)c3cccc(F)c3)n2)cc1	i	0.06
Cc1ccc(NC(=O)Nc2cc(F)c3nc(N4CCCC4)ccc3c2)cc1	i	1.2
COc1ccc(OC)c(NC(=O)N2CCc3c([nH]c4ccc(OC)cc34)C2c2ccc(F)cc2)c1 (stereo unspecified)	i	-0.99
Fc1ccc(-c2noc(-c3ccc(N4CCCC4)nc3)n2)cc1	i	0.02
Cc1cc(C)cc(-n2ccnc(NC(=O)Nc3ccc(F)cc3)c2=O)c1	i	-0.36

(list continues)
Compound	Choline anaer gr	Choline anaer gr early
Cc1onc(-c2ccc(F)cc2F)c1C(=O)Nc1ccc(Br)cc1F	i	0.43
COc1cccc(NC(=O)Cn2nc3ccc(S(=O)(=O)C(C)(C)C)nn3c2=O)c1	i	-0.25
Cn1c(=O)n(C)c2cc(Sc3ccc(Cl)cc3)c(NS(=O)(=O)c3ccc(F)cc3F)cc21	i	-0.62
CSc1ccc(NC(=O)N2CCC(c3cc(=O)n4nccc4n3C)CC2)cc1	i	-0.12
COC(=O)C1=C(C)Nc2nc(SCC(C)C)[nH]c(=O)c2C1c1sccc1C (stereo unspecified)	i	1.2
COc1cccc(NC(=O)Nc2ccc(SCc3nnc(-c4ccccc4)o3)cc2)c1	i	1.4
Cc1cc(C)c2c(n1)SCCN2C(=O)Nc1cc(F)ccc1F	i	0.13
O=S(=O)(NC1CCCCC1)c1ccccc1-c1nc(-c2ccccc2)no1	i	0.39
C=C1C[C@H]2[C@@H]3C=C(C)C4=CC(=O)CC[C@]4(C)[C@H]3CC[C@]2(C)[C@@]1(OC(C)=O)C(C)=O	i	0.48&0.18
Cc1ccc(-c2noc(-c3ccc(NCCc4ccc(S(N)(=O)=O)cc4)nc3)n2)cc1	i	0.03
CCOC(=O)C1CCN(c2cc3c(cc2NC(=O)CC)n(C)c(=O)n3C)CC1	i	-0.96
O=C(CN1C(=O)COc2ccccc21)N1CCC(c2nc(-c3ccccc3)no2)CC1	i	-0.22
O=C(c1c2c(nc3ccccc13)C(=O)N(C1CCCCC1)C2)N1CCN(C2CCCCC2)CC1	i	-0.01
C[C@]12CC[C@@H]3c4ccc(OS(=O)(=O)O)cc4CC[C@H]3[C@@H]1CCC2=O	i	0.54
COc1cccc(C(=O)Nc2ccc(-c3ccc4ccccc4n3)cc2)c1	i	0.3
COc1cccc(NC(=O)Cn2c(=O)n(-c3ccc(C)cc3)c(=O)c3ccccc32)c1	i	-1.4
COc1cc(NC(=O)c2nn(C)c(C(F)(F)F)c2Cl)cc(OC)c1	i	0.37
CCc1nccn1Cc1noc(-c2cccs2)n1	i	-0.61
Cc1nn(-c2cc(N3CCOCC3)ncn2)c(C)c1CCC(=O)N1CCOCC1	i	-0.08
O=C(Nc1ccc(F)cc1)c1cccc(N2CCCS2(=O)=O)c1	i	0.45
CCOc1ccc(C(=O)N(C)CCc2noc(COc3ccccc3)n2)cc1	i	-0.48
Cc1c(C(=O)N2CCC(C)CC2)oc2ccc3c(c12)C(=O)CC(C)(c1ccc(Cl)cc1)O3 (stereo unspecified)	i	-0.78
CCCc1cc(C2CCCN2C(=O)c2cc(-c3cccs3)on2)no1 (stereo unspecified)	i	0.15
Cn1nnc2c(N(CCc3ccccc3)Cc3ccccc3)ncnc21	i	0.67
CC(NC(=O)c1cc(-c2ccccn2)nc2ccc(S(=O)(=O)N3CCOCC3)cc12)c1ccccc1 (stereo unspecified)	i	0.91
Cn1c(SCc2ccccc2)nnc1-c1ccc2c(c1)OCCCO2	i	-0.58
CCN(Cc1ccccc1)c1ccc(C(=O)O)cc1NS(=O)(=O)c1ccc(Br)cc1	i	-0.64
CCn1ccnc(NC(C)C)c1=O	i	0.84
O=S(=O)(Nc1cccn2c(C3CCC3)nnc12)c1cccc2nsnc12	i	-2
CC(C)c1c(O)nc2n(c1=O)CCCS2	i	0.67
O=C(Nc1ccc(Cl)cc1)c1ccc(CN2C(=O)C3CCCN3C(=O)c3ccccc32)cc1 (stereo unspecified)	i	-1.2
COc1ccc(-c2cc(OC(=O)c3ccccc3)c3c(C)oc(C)c3c(=O)c2)cc1OC	i	-0.63
CCCCN1CCN(S(=O)(=O)c2cc(-c3nnc(C4CC4)o3)co2)CC1	i	1.2
COc1ccc(-c2noc(CN3CCC(C(=O)N4CCN(c5ccccn5)CC4)CC3)n2)cc1OC	i	-0.09
Cc1ccc(-c2nc3nc(C)cc(NCCO)n3n2)cc1	i	-1.3
CCC(Sc1nnc(-c2cc(C)ccc2NC(C)=O)c(=O)[nH]1)C(=O)Nc1ccc(F)cc1 (stereo unspecified)	i	-0.93
O=C(NCCc1nc(-c2ccccc2)no1)c1cc(-c2ccc(Br)cc2)on1	i	0.19
CCC(=O)N1CCCC1c1nc2ccccc2n1CCCCOc1ccc(C)cc1 (stereo unspecified)	i	0.94
CC(C)NC(=O)C1CCCN(C(=O)c2cc(-c3cccnc3)n[nH]2)C1 (stereo unspecified)	i	1.3
COc1ccc(Nc2nc3ccccc3n3cnnc23)cc1	i	0.06

(cont.)
Every second line gives: Choline anaer gr	Choline anaer gr early
> Cc1cc(N2CCOCC2)n2nc(-c3ccc(C(C)(C)C)cc3)nc2n1
  i	0.87
> Cc1ccccc1-c1ccc(N2CCCC(C(=O)N(C)Cc3ccccc3)C2)nn1 (stereo unspecified)
  i	-0.77
> Cc1ccsc1CC1C(=O)Nc2ccc(Cl)cc21 (stereo unspecified)
  i	-0.43
> O=C(Nc1ccc(F)c(Cl)c1)N1CCN(Cc2nc3cccnc3n2-c2ccc(F)cc2)CC1
  i	-0.63
> CC(C)Cc1cc(-c2nn3c(COc4ccc(F)cc4)nnc3s2)n[nH]1
  i	0.21
> Cc1ccccc1S(=O)(=O)Nc1ccc(-c2nnc(-c3ccccc3)o2)cc1
  i	0.82
> CCOC(=O)c1c(C)oc2ccc(N(C(=O)c3ccncc3)S(=O)(=O)c3ccc(C)cc3)cc12
  i	-0.1
> COc1ccc(CCN2CC(=O)N(c3ccc(C)cc3)[C@@H]3CS(=O)(=O)C[C@@H]32)cc1OC
  i	-1.2
> Cc1cc(C)c(/C=C/c2onc(C)c2S(=O)(=O)N2CCC(C(=O)N3CC=C(c4ccccc4)CC3)CC2)c(C)c1
  i	-1.2
> O=c1c(S(=O)(=O)c2cc(F)cc(F)c2)c[nH]c2cc(F)c(Cl)cc12
  i	1.1
> CC1(C)CC(=O)C2=C(C1)Nc1ccccc1NC2c1c(F)cccc1Cl (stereo unspecified)
  i	-0.42
> CCc1nc(OCC(=O)Nc2ccc(C)c(C)c2)c2ccccc2n1
  i	0.52
> COc1ccc(CNc2ncnc3scc(-c4ccccc4)c23)cc1
  i	1.2
> Cn1cc2c(N3CCSCC3)nc(C(=O)NCCc3cccs3)nc2n1
  i	-0.5
> CC(C(=O)NCc1ccccc1)C1Sc2ccccc2N(Cc2cccc(Cl)c2)C1=O (stereo unspecified)
  i	0.41
> COc1cc(OC)c(NC(=O)c2cc(-c3cccnc3)on2)cc1Cl
  i	0.76
> COc1ccc(C2CC(=O)NC3=C2C(=O)CC(C)(C)C3)cc1 (stereo unspecified)
  i	-0.48
> CCCCCn1c(=O)[nH]c2cc(C(=O)N3CC=C(c4ccccc4)CC3)ccc2c1=O
  i	1.3
> CCOc1ccc(CCNC(=O)c2oc3cc4sc(N(C)C)nc4cc3c2C)cc1
  i	0.6
> COC(=O)c1nc2ccccc2nc1N1CCN(c2ccccc2OC)CC1
  i	0.31

Full records from above:
COC(=O)c1nc2ccccc2nc1N1CCN(c2ccccc2OC)CC1 as listed: Choline anaer gr: i; Choline anaer gr early: 0.31
CC(C(=O)NCc1ccccc1)C1Sc2ccccc2N(Cc2cccc(Cl)c2)C1=O (stereo unspecified) as listed: Choline anaer gr: i; Choline anaer gr early: 0.41

Carrying on.
Every second line gives: Choline anaer gr	Choline anaer gr early
> CCn1c(=O)c(N2CCC(C(=O)NCCc3ccccc3Cl)CC2)nc2ccccc21
  i	0.87
> Cc1cc(-c2csc(S(=O)(=O)N3CCN(C(c4ccccc4)c4ccccc4)CC3)c2)on1
  i	-0.34
> COc1ccc(-c2onc(C)c2C)cc1S(=O)(=O)NCC1CCCO1 (stereo unspecified)
  i	-0.32
> Cc1ccc(C(=O)Nc2ccc3nc(N4CCC(N5CCCCC5)CC4)cc(C(=O)O)c3c2)cc1
  i	0.12
> Cc1ccc(-n2nc(C)c3c(C)c(CCC(=O)NC(C)c4ccccc4)c(C)nc32)cc1C (stereo unspecified)
  i	-0.05
> Cc1noc2nc(CCC(=O)N3CCOCC3)nc(N3CCOCC3)c12
  i	-1.6
> CCCNC(=O)c1cnn2c(C(F)(F)F)cc(-c3ccc(Br)cc3)nc12
  i	-0.19
> CCN(CC)S(=O)(=O)N1CCC(C(=O)NCCc2ccccc2)CC1
  i	0.47
> COc1ccc(NC(=O)c2nnc(C3CCN(C(=O)c4cccc(Cl)c4)CC3)s2)cc1
  i	0.31
> COc1ccc2nc(-n3nc(C)c4c3NC(=O)CC4c3ccc4c(c3)OCO4)sc2c1 (stereo unspecified)
  i	1.3
> COc1cccc(CSc2nc3ccncc3n2Cc2ccc(C(=O)NC3CCCC3)cc2)c1
  i	2.3
